HPGD inh – qHTS Assay for Inhibitors of HPGD (15-Hydroxyprostaglandin Dehydrogenase). 15-hydroxyprostaglandin dehydrogenase [NAD(+)] (Homo sapiens), P15428. Potency, µM, for the others: top-dose activity change, negative = inhibition, actives largely listed as inhibitors. purified HPGD, NADH fluorescence kinetic, PGE2 substrate. 4.3% of 150,000 active. AID 894, 2007; active = well fitted inhibition curve with a large enough effect (not every such curve was filed as active); inconclusive = small, poorly fitted or top-dose-only effect, or another doubt; inactive = no such curve, though single readings can be large or run the other way;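 also: top concentration of the series not given in the record; plate controls included wells without enzyme; inactives centre near -10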
Target sequence (P15428 whole entry, looked up): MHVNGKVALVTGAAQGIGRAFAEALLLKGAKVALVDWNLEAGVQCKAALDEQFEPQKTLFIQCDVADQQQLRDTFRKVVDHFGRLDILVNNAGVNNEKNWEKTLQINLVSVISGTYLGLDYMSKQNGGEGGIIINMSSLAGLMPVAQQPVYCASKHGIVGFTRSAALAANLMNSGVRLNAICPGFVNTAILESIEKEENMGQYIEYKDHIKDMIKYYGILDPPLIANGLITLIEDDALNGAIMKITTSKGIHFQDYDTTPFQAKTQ
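20 nM HPGD preincubated 15 min at room temperature with compound in 50 mM Tris-HCl pH 8, 0.01% Tween 20. Started with 1 mM NAD+ and 30 uM prostaglandin E2; NADH fluorescence (360/450 nm) read 5 times over 30-s intervals, last minus first.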
* marks the source's active call; other numbers are inactive results; u = inconclusive; & = joins results of further samples. % is scaled to controls: 0 for no effect and ±100 for the full control effect; potency is read from the fitted curve at half-maximal effect. A portion of the library; rates above refer to the full screens.

HPGD inh	Compound
-9.1%	CC(=O)O[C@@]1(C(C)=O)CCC2C3C=C(Cl)C4=CC(=O)CC[C@]4(C)C3CC[C@]21C (stereo partly specified)
-5.3%	O=C1CSC(=NC(=O)c2ccccc2)N1
-15.1%	O=C(CSCc1ccc([N+](=O)[O-])cc1)NCCSCc1ccccc1
-14.3%	O=C(c1ccc([N+](=O)[O-])cc1)n1nc(-c2ccccc2)nc1NCc1ccc(F)cc1
u	Cc1ccc(CNc2nc(-c3cccs3)nc3ccccc23)cc1
-11.7%	CC(=O)c1cccc(N(CC(=O)O)S(C)(=O)=O)c1
-2.4%	CCCNC(=S)Nc1ccc2nc(-c3ccccn3)c(-c3ccccn3)nc2c1
-13.3%	O=C(NCc1ccc2c(c1)OCO2)C1CCN(S(=O)(=O)c2ccc(Br)s2)CC1
-3.7%	CC(CCc1ccccc1)C(=O)NO (stereo unspecified)
-3.9%	CC1(C)CC(=O)C(C=NCCCO)=C(O)C1
-5.5%	CC(C)(C)OC(=O)C1C(=O)CC(C)(O)C(C(=O)OC(C)(C)C)C1c1cccnc1 (stereo unspecified)
-6.0%	O=C(NC1CCCC1)C(c1cccs1)N(C(=O)c1ccno1)c1ccccc1 (stereo unspecified)
-12.3%	CCCCNC(=S)Nc1ccc2cn[nH]c2c1
u	Cc1cccc(-c2nsc(SCC(=O)Nc3nccs3)n2)c1
-3.5%	COC(=O)Nc1ccc(S(=O)(=O)Nc2cccc3ccccc23)cc1
-5.7%	COc1cccc(C(C(=O)NC2CCCCC2)N(C(=O)c2cccs2)c2ccc3c(c2)OCO3)c1 (stereo unspecified)
-17.8%	O=C(O)c1cnc(-c2ccccc2)nc1Sc1ccc(Cl)cc1Cl
-6.8%	N/C(=N\OC(=O)C(c1ccccc1)c1ccccc1)c1cccnc1
-3.7%	Cc1ccc(N(C(C)C(=O)O)S(=O)(=O)c2cccnc2)cc1 (stereo unspecified)
-2.6%	COc1ccccc1C1OC(=O)CC1C(=O)OC[C@@H]1CCCN2CCCCC12 (stereo partly specified)

Continued, overlapping the part above by 2 compounds.
HPGD inh	Compound
-3.7%	Cc1ccc(N(C(C)C(=O)O)S(=O)(=O)c2cccnc2)cc1 (stereo unspecified)
-2.6%	COc1ccccc1C1OC(=O)CC1C(=O)OC[C@@H]1CCCN2CCCCC12 (stereo partly specified)
-11.3%	O=C(CCN1C(=O)/C(=C/C=C/c2ccccc2)SC1=S)Nc1cccnc1
-1.7%	CN(C1=C(N2CCCCC2)C(=O)c2ccccc2C1=O)c1ccccc1
-19.5%	CC1(C)CC(=O)C(C=Nc2cccc(/N=C/C3=C(O)CC(C)(C)CC3=O)n2)=C(O)C1
u	CCOC(=O)c1c(C2CC2)csc1NC(=O)COC(=O)CCS(=O)(=O)c1ccc(C)cc1
u	COc1ccc(OC)c(N=c2oc3cc(O)ccc3cc2C(N)=O)c1
-12.0%	Cc1cccc2sc(NC(=O)C3c4ccccc4Oc4ccccc43)nc12
-3.3%	COc1ccc(C2CC(c3c(Cl)cccc3Cl)n3nc(N)nc3N2)cc1 (stereo unspecified)
-12.2%	CCC(C)(C)NC(=O)C(c1cccn1C)N(Cc1ccc(C)cc1)C(=O)Cn1nnc2ccccc21 (stereo unspecified)
-19.8%	O=C(CN1N=C(c2ccc(Cl)cc2)CCC1=O)NCc1cccnc1
-13.9%	N#Cc1c(NC(=O)CSc2ncc(-c3ccccc3)n2CC2CCCO2)sc2c1CCCC2 (stereo unspecified)
-14.9%	COc1ccc(NC(=O)Cn2c(-c3ccc(OC)cc3)cn(-c3ccc(C)cc3)c2=O)cc1
-9.3%	CCn1cnc2scc(-c3ccccc3)c2c1=O
6.2%	CCNCCC(=O)N1c2ccccc2Sc2ccc(NC(=O)OCC)cc21
-10.6%	Fc1ccc(C2=NCCC(c3ccccc3)O2)cc1 (stereo unspecified)
-4.2%	COc1ccc(/C(O)=C2/C(=O)C(=O)N(CC3CCCO3)C2c2cccc(O)c2)cc1 (stereo unspecified)
1.4%	COc1ccc(CNC(=O)C2CCN(C(=O)N3CCOc4ccc(C)cc43)CC2)cc1
-6.8%	CC(C)OC(=O)CCNc1n[nH]c(=O)[nH]c1=O
-14.2%	CCn1c(SCC(N)=O)nc2c(c1=O)C1(CCCC1)Cc1ccccc1-2
25.1µM*	CCCCOC(=O)CNc1n[nH]c(=S)[nH]c1=O
u	Cc1cc(C)c2cc(CN(Cc3nnnn3Cc3ccc(F)cc3)C3CCCC3)c(=O)[nH]c2c1
-14.9%	CCOC(=O)N1CCC(NC(=O)c2ccc(CNS(=O)(=O)c3ccc(F)cc3)cc2)CC1
-10.6%	Cc1c(C(O)CN2CCC(C(N)=O)CC2)c2ccccc2n1C (stereo unspecified)
-2.2%	Cc1ccc(NC(=O)CCC(=O)N/N=C/c2ccco2)c(C)c1
-14.9%	CCOC(=O)CC(=O)CSc1nc2c(c(C)c1C#N)CCC2
u	Cc1cc(Oc2ccc(Cl)cc2)nc(SCC(=O)c2ccccc2)n1
-16.0%	COc1cc(CNC(=O)c2cccc(COc3ccc(Cl)cc3)c2)cc(OC)c1
0.8%	CCOC(=O)C1CCN(C(=O)C2(NC(=O)Nc3ccccc3Cl)CCCCC2)CC1
-8.9%	COC(=O)[C@@H](NC(=O)O[C@@H]1C(=O)c2cc(OC)ccc2O[C@H]1c1cccc(OC)c1)C(C)C
-19.6%	CCCN(Cc1ccc(N(C)C)cc1)CC1CC1
-5.4%	CC(=O)c1[nH]c(C)c(C(C)=O)c1C
-7.4%	O=C(c1cnn2c1NC(c1ccc(Br)cc1)CC2C(F)(F)F)N1CCN(C23CC4CC(CC(C4)C2)C3)CC1 (stereo unspecified)
u	CC1CCCN(S(=O)(=O)c2ccc(C(=O)Nc3ccccc3-c3nc4ccccc4[nH]3)cc2)C1 (stereo unspecified)
0.4%	COc1ccc(-n2c3c(c(=O)[nH]c2=O)C(C(F)(F)F)(C(F)(F)F)N=C(CC(C)C)N3)cc1
u	Cc1ccc(-c2nnc(-c3cccc(NC(=O)c4cccs4)c3)o2)cc1
-19.8%	CC(C)(C)c1cc(C(=O)O)nn1-c1ccccc1
-22.2%	COc1ccc2c(OC)cc(=O)n(C)c2c1
-4.1%	CC(=O)Nc1nc(NC(=O)/C=C/c2ccccc2)n(-c2ccccc2)n1
0.9%	Clc1cc(Cl)cc(Cl)c1
-2.9%	Cc1ccc(S(=O)(=O)NCC(=O)OCC(=O)N(Cc2ccccc2)C(C)(C)C)cc1
-8.2%	O=C(O)c1cccc(NS(=O)(=O)c2cccc3cccnc23)c1

Another view of part of the listing above:
Molecule | HPGD inh
Cc1c(C(O)CN2CCC(C(N)=O)CC2)c2ccccc2n1C (stereo unspecified) | -10.6%
Fc1ccc(C2=NCCC(c3ccccc3)O2)cc1 (stereo unspecified) | -10.6%
CCCN(Cc1ccc(N(C)C)cc1)CC1CC1 | -19.6%
CC(C)OC(=O)CCNc1n[nH]c(=O)[nH]c1=O | -6.8%
CCOC(=O)C1CCN(C(=O)C2(NC(=O)Nc3ccccc3Cl)CCCCC2)CC1 | 0.8%
COc1ccc(/C(O)=C2/C(=O)C(=O)N(CC3CCCO3)C2c2cccc(O)c2)cc1 (stereo unspecified) | -4.2%

The results go on:
HPGD inh	Compound
-2.6%	COc1cc(S(=O)(=O)NCc2cccnc2)c(OC)cc1Br
u	CCOC(=O)C(CSCC(=O)c1ccc(Cl)cc1Cl)NC(=O)OC(C)(C)C (stereo unspecified)
-0.5%	COc1c2c(nc3ccccc13)O[C@H]([C@@](C)(O)CO)C2
-17.3%	CCc1nc(SCC(=O)O)c(C#N)cc1C
-2.8%	Cc1n[nH]c(C)c1S(=O)(=O)N1CCCC(C(=O)Nc2ccc3c(c2)OCCO3)C1 (stereo unspecified)
-7.3%	Cc1ccc2ncccc2c1NS(=O)(=O)c1ccccc1
17.8µM*	Cc1ccccc1C(=O)Nc1ccc2c(c1)OCO2
-17.8%	COc1ccc(-c2cc(C3CCN(c4ncccc4[N+](=O)[O-])CC3)[nH]n2)cc1
-17.5%	CN(C)S(=O)(=O)c1ccc(NC(=O)C2CCCN(C(=O)c3ccc(Cl)cc3)C2)cc1 (stereo unspecified)
-10.8%	C=CCN1C=C2C(=O)C(C)(OC(=O)CCc3ccccc3)C(=O)C=C2C=C1c1ccc(C#N)cc1 (stereo unspecified)
-1.8%	O=C(NCc1ccccc1)c1cccc(NS(=O)(=O)c2cccc3cccnc23)c1
-11.1%	CCCN1C(=O)C2(/C(=C(\O)c3ccc4c(c3)OCCO4)C(=O)C(=O)N2CCCOC)c2ccccc21 (stereo unspecified)
u	CCCCNC(=O)c1cc(-c2ccc(OC)cc2)on1
-3.8%	O=C(c1ccco1)N1CCN(C(c2ccccc2)c2nnnn2Cc2cccs2)CC1 (stereo unspecified)
14.1µM*	CCCc1cc(=O)[nH]c(SCc2cc(Cl)ccc2OC(F)F)n1
-59.1%	O=C(OC1CCOC1=O)c1cc(-c2ccc(Br)cc2)nc2ccccc12 (stereo unspecified)
4.6%	CC(CN1CCOCC1)OC(=O)C(c1ccccc1)c1ccccc1 (stereo unspecified)
3.5%	O=C(/C=C/c1ccc(Cl)cc1)N1CCN(c2ncccn2)CC1
-14.1%	Nc1nc(SCc2ccc3c(c2)OCCO3)n[nH]1
-16.4%	CC(C)Oc1cc(NC(=O)CS(=O)CC(=O)Nc2cccc(C(F)(F)F)c2)c(Cl)cc1Cl (stereo unspecified)
-11.2%	COc1ccccc1CCNC(=O)C(=O)NCC1OCCN1S(=O)(=O)c1ccc(Br)cc1 (stereo unspecified)
15.8µM*	Cc1ccccc1-c1noc(CCC(=O)NCC2CCCO2)n1 (stereo unspecified)
-8.5%	O=C(Cc1cccs1)Nc1cccc(-c2nc3ccccc3[nH]2)c1
-7.2%	CC(C)c1ccc2[nH]c(O)c(N=NC(=O)c3ccc(CSc4nncn4C)cc3)c2c1
-16.7%	O=C(COC(=O)c1cccc2c1C(=O)c1ccccc1C2=O)NC1CCCCC1
-4.4%&-18.2%	OCCOCCN1CCN(C2=Nc3ccccc3Sc3ccccc32)CC1
-9.1%	COc1cc(SC)ccc1C(=O)Nc1ccc2c(c1)OCCO2
-1.2%	Cc1cccc(-n2cc(-c3ccccc3)c3c(=O)[nH]cnc32)c1
-12.7%	N#C/C(=C/c1ccc(N2CCCCC2)o1)C(=O)NCCc1c[nH]c2ccccc12
-19.1%	OCCN1CCN(CCOc2cccc(Cl)c2)CC1
-7.4%	Cc1cc(C)nc(SCC(=O)Nn2cnnc2)n1
-28.3%	COc1ccc2c(c1)SC(C)CC2=O (stereo unspecified)
-7.1%	O=C(O)c1cccc(NC(=O)c2cccc(S(=O)(=O)N3CCCCC3)c2)c1
-1.8%	Cc1cc(C(F)(F)F)n2nc(-c3sccc3-n3cccc3)cc2n1
1.7%	CCN(CC)S(=O)(=O)c1ccc(C(=O)Nc2cc(C)cc(C)c2)cc1
-9.9%	Cc1cc(N2CCN(c3ccccn3)CC2)n2cc(-c3ccccc3)nc2n1
-4.3%	CCNCc1cc(Br)c(OCC(=O)Nc2ccccc2)c(OC)c1
-4.7%	O=C(COc1ccccc1)OC(C(=O)c1ccccc1)c1ccccc1 (stereo unspecified)
-4.5%	Cc1ccc2[nH]cc(CCCN3C(=O)c4ccccc4C3=O)c2c1
14.1µM*	c1ccc(-c2n[nH]c3ccccc23)cc1
-21.7%&-4.8%&0.9%&-3.8%	c1cnc(N2CCN(Cc3ccc4c(c3)OCO4)CC2)nc1
0.1%	C/C(CCc1ccccc1)=N\NC(=O)CCc1ccccc1
-22.0%	CC(=O)c1c(C)[nH]c(C(=O)COC(=O)c2cccc(S(=O)(=O)N(C)c3ccccc3)c2)c1C
-18.6%	CC(=O)NCCOc1ccc(C(=O)O)cc1
-5.8%	CCC(=O)N1c2ccc(S(=O)(=O)CCC(=O)N3CCN(c4ccccc4)CC3)cc2CC1C (stereo unspecified)
-16.8%	C=CCCC(=O)Nc1nc(C)c(-c2csc(Nc3cc(OC)ccc3OC)n2)s1
-2.7%	Oc1c(Cl)cc(Cl)cc1C=Nc1ccccc1N1CCCC1
-10.2%	COc1cc2c(cc1OC)C(C(=O)O)C(c1ccc(C)o1)N(C)C2=O (stereo unspecified)
-10.0%	CCCc1nc(-c2ccccc2O)n(-c2ccccc2)n1
-11.8%	Cc1cc(C)cc(OCC(=O)OCC(=O)NCCC2=CCCCC2)c1
-2.6%	CC(C)O
-10.5%	CC(=O)Nc1ccc(NC(=O)C2CCN(S(=O)(=O)c3cccc4nonc34)CC2)cc1
-12.1%	CC(=O)C1=C(c2ccccc2)OC(N)=C(C#N)C1c1ccccc1C (stereo unspecified)
-2.7%	Cc1ccc(OCC(O)CNS(=O)(=O)c2ccccc2C(=O)N2CCCCC2)cc1 (stereo unspecified)
15.8µM*	Cc1ccc(-c2csc(=S)n2CC(=O)OCC(=O)NCc2ccc(F)cc2)cc1
-8.0%	O=S(=O)(c1ccccc1)N1CCC[C@@]2(CCN(Cc3cc(C(F)(F)F)cc(C(F)(F)F)c3)C2)C1
12.6µM*	CSc1nc(N)nc(SCC(=O)C(C)(C)C)c1C#N
u	COc1cc(-c2nn3c(-c4cccnc4)nnc3s2)cc(OC)c1OC
-25.9%	CCCC1C2CN(C(C)=O)CC=C2C(C#N)=C(N)C1(C#N)C#N (stereo unspecified)
-18.0%	COc1ccc(-c2nc3ccccc3n2Cc2ccc(C)cc2)cc1

(listing goes on)
HPGD inh	Compound
-8.4%	Nc1nc(Cl)nc2c1ncn2[C@@H]1O[C@H](CO)[C@H](O)[C@H]1O
-1.2%	COc1ccc(N/N=C2/CCCCC2=O)cc1
-11.4%	O=c1c2c3c(sc2nc2n1N=C(c1cccs1)CS2)CCCC3
12.6µM*	CCN(CC)c1ccc(NC(=O)CSc2ccsc2[N+](=O)[O-])c(C)c1

From PubChem
